Menin-MLL FL inh: qHTS Assay for Inhibitors Targeting the Menin-MLL Interaction in MLL Related Leukemias: Competition With Fluorescein Labeled MLL-derived Peptide | Fluorescence polarization, fluorescein-MLL peptide displacement from menin | FP activity change, % at 61.4 µM | 290,000 tested, under 10 active | AID 1766, 2009; inconclusive = falling polarisation curve, or a change in total fluorescence; inactive = total fluorescence flat and polarisation flat or rising; no compound was filed as active; the % refers to the polarisation; negative = inhibition;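 also: % of control where 0% means no effect; inhibitors lower the polarisation; unlabelled MLL peptide was the positive control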
gsp antagonist: qHTS for Antagonists of gsp, the Etiologic Mutation Responsible for Fibrous Dysplasia/McCune-Albright Syndrome: qHTS. hit rate 0.4% among 340,000. Potency, µM (doses to about 76.9 µM), for inactives: at the top dose activity change, negative = inhibition, hits mostly inhibitors. gsp-mutant cells, cAMP HTRF, 30 min; control for the full effect not named in the record. AID 624288, 2012; active = falling curve of any shape with a large fitted effect; inconclusive = falling curve, mostly with a smaller effect; inactive = flat or rising curve; cell line not stated here;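 also: intracellular cAMP measured with PDE inhibitor Ro 20-1724 present during compound exposure; potency is read from the fitted curve at half-maximal effect; % is scaled to controls: 0 for no effect and ±100 for the full control effect; nearly all actives have a fitted effect of over 65% in size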
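Cells, 2000/well, grown 16–24 h in DMEM 10% FBS with 0.5 mg/ml G418, then compounds plus […] (300 uM addition stock), 30 min at 37C. cAMP read by HTRF (cAMP-d2 and anti-cAMP antibody-K in lysis buffer) after 30 min RT.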
CtBP-E1A blk: qHTS Assay for Inhibitors of the CtBP/E1A Interaction | hit rate 0.49% among 340,000 | AlphaScreen GST-E1A/His-CtBP binding, 1536-well; hits give low values; control for the full effect not named in the record | activity change, % (concentration not given with the values); in the data active means activity change below about -65%; inconclusive means about -30% to -65%; inactive means above about -30%; also: % is scaled to controls: 0 for no effect and ±100 for the full control effect
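Protein mix (5X: 125 nM each GST-E1A, His-CtBP) was incubated with pinned compound 2 h at 37 deg C in dark, in 50 mM Tris pH 8.0 buffer with 300 mM NaCl. Glutathione donor and nickel acceptor beads followed; AlphaScreen signal read after 1 h.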
gsp agonist: qHTS for Agonist of gsp, the Etiologic Mutation Responsible for Fibrous Dysplasia/McCune-Albright Syndrome: qHTS. AID 624287, 2012. hit rate 0.13% among 340,000. gsp mutant cells, cAMP HTRF, 30 min; control for the full effect not named in the record. Potency, µM (highest dose often 76.9 µM), without a hit: at the highest dose activation (cAMP increase), most hits filed as activators; active = well fitted activation curve with a large enough effect; inconclusive = small, poorly fitted or top-dose-only effect, or another doubt; inactive = no such curve, though single readings can be large or run the other way; cell line not stated here;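 also: phosphodiesterase inhibitor Ro 20-1724 added with compounds to block cAMP breakdown; potency is read from the fitted curve at half-maximal effect; nearly all actives have a fitted effect of over 60% in size; about a fifth of the inactives were tested at one dose only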
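Cells stably selected in G418 were plated at 2000/well, grown 16-24 hr, then given compounds in DMSO with the PDE inhibitor […] (300 uM solution added) for 30 min at 37C; cAMP was read by HTRF.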
TRPV1 PAM: HTS Assay for Compounds that Act as Potentiators of the Vanilloid Receptor 1; potentiation, % at 8.33 µM; AID 540277, 2011; hit rate 0.02% among 320,000; TRPV1-expressing cells, Fluo-8 calcium influx, capsaicin EC20 potentiation; host cell line not named in the record; control for the full effect not named in the record; active means potentiation above 80%; inconclusive means 30% to 80%; inactive means below 30%; also: 0% is about no effect
Target sequence (Q8NER1 whole entry, looked up): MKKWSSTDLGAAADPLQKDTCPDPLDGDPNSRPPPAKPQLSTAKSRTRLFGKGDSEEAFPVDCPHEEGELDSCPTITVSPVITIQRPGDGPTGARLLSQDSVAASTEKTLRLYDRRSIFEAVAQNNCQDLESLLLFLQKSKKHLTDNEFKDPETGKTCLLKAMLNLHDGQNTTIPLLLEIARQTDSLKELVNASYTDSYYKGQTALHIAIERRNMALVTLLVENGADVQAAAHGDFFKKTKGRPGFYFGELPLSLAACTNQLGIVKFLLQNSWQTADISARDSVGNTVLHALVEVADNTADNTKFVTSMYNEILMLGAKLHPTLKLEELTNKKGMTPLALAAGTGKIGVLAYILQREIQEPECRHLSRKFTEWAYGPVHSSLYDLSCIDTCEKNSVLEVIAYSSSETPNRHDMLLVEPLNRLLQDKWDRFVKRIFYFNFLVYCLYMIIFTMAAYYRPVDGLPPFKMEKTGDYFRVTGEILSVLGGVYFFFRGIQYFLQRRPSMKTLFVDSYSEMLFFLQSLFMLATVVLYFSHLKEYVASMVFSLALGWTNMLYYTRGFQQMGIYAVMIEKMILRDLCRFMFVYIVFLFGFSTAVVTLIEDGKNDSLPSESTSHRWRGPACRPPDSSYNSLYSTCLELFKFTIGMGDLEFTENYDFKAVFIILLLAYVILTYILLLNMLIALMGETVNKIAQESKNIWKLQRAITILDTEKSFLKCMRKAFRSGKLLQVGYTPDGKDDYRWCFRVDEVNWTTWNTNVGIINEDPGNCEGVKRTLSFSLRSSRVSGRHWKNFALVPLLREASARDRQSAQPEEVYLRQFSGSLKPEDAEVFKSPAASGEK
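Cells expressing TRPV1 were dye-loaded with Fluo-8 and read kinetically: 10 s baseline, 3 min after compound (agonist portion), then 2 min after EC20 capsaicin (allosteric enhancer portion). Calcium-bound dye fluorescence at 480/520 nm.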
Sfp inh: qHTS Assay for Inhibitors of Bacillus subtilis Sfp phosphopantetheinyl transferase (PPTase). Biochemical Sfp PPTase activity, qHTS. Potency, µM, for the others: max response, negative = inhibition, usual class: inhibitors. hit rate 3.5% among 310,000. AID 1490, 2009; active = well fitted inhibition curve with a large enough effect; inconclusive = small, poorly fitted or top-dose-only effect, or another doubt; inactive = no such curve, though single readings can be large or run the other way;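 also: the enzyme is Sfp with the accession as filed and its product quenches rhodamine fluorescence; potency is read from the fitted curve at half-maximal effect; 0% = enzyme reaction without inhibitor and -100% = no enzyme wells; top concentration of the series not given in the record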
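Sfp 15 nM + cpd, 15 min RT; start w/ rhodamine-CoA 5 uM, BHQ-2-YbbR 12.5 uM (final); 50 mM Hepes pH 7.6, 10 mM MgCl2, 0.01% NP-40, 0.01% BSA; read 525/598 nm at 0 and 30 min.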
ClpP mod: qHTS Assay for Activators of ClpP | hit rate 1.9% among 340,000 | ATP-dependent Clp protease proteolytic subunit (Bacillus subtilis (strain 168)), P80244 | purified B. subtilis ClpP, FRET peptide cleavage, 20 min | Potency, µM (top dose mostly 57.5 µM), without a hit: at the highest dose activity change, negative = active; active = well fitted falling curve with a large enough effect; inconclusive = small, poorly fitted or top-dose-only effect; inactive = no such curve, though single readings can be large or run the other way; also: potency is read from the fitted curve at half-maximal effect; the source files actives as falling curves though it sought activators and does not explain the sign; nearly all actives have a fitted effect of over 65% in size; many hits overshoot -100%
Target sequence (P80244 whole entry, looked up): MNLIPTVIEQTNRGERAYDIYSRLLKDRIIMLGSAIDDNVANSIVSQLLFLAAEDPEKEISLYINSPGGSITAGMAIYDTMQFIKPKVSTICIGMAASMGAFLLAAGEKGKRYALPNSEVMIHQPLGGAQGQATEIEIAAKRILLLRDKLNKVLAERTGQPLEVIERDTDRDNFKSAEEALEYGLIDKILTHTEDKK
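FRET quenching reversal measured ClpP activation: 10 microg/mL B. subtilis ClpP at pH 8 with the FRET-FV decapeptide, read at 430 nm after 320 nm excitation. The 20-min minus 0-min signal was scaled between DMSO/no-enzyme wells and ADEP (5.8 microM final).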
Active calls of the source: *; ? = inconclusive; . = not tested or not shown; & = joins results of further samples; [ ] = another dose, or the depositor's remark. Random draw from the library; 5.3% or so of the library scored in one or more.

SMILES | Menin-MLL FL inh | gsp antagonist | CtBP-E1A blk | gsp agonist | TRPV1 PAM | Sfp inh | ClpP mod
Cc1ccc(C#CC(C)(O)C(C)(C)C)cn1 (centres undefined) | . | -3% | . | 22% | 15 | 13% | -0.2%
CCOC(=O)c1oc2cc(OC(C)=O)ccc2c(=O)c1-c1ccc(OC)c(OC)c1 | -7.9 | -17% | . | 23% | -13 | 2% | 1.2%
O=[N+]([O-])c1cccc(/C=N/NC2CCS(=O)(=O)C2)c1 (centres undefined) | -1.1 | -12% | 0 | 11% | 10 | 3% | .
CC(C)(C)OC(=O)N1CCN(C(=O)c2[nH]cnc2C(=O)Nc2nccs2)CC1 | . | 10% | ? | ? | -7 | . | -1.7%
COc1ccc2[nH]c(-c3ccccc3)cc2c1 | 0.2 | -5% | -12 | 6%[15.4 µM] | -5 | 5% | 0.0%
COc1ccc(S(=O)(=O)Nc2ccc3cn[nH]c3c2)cc1C | 1.2 | 12% | . | 17%[15.4 µM] | -16 | -2% | .
C=CCn1c(SCc2ccc(Br)cc2F)nc2cc(C(=O)O)ccc2c1=O | 0.0 | ? | -1 | -8% | 13 | -8% | .
CC(C)CCSc1nc(N2CCOCC2)c2c(c1C#N)CC(C)(C)OC2 | -1.6 | 3% | 9 | ? | -18 | ? | ?
CCc1ccc(C(=O)C(C)OC(=O)C2COc3ccccc3O2)cc1 (centres undefined) | -1.1 | -11% | 8 | -36% | 4 | 2% | -1.5%
O=C(c1cc(-c2ccc(Cl)cc2)on1)N1CCc2ccccc2C1 | 1.5 | 10% | 10 | -2%[15.4 µM] | 2 | 6% | ?
N#CC1(NC(=O)COC(=O)CCN=C2NS(=O)(=O)c3ccccc32)CCCCC1 | . | 1% | 3 | -8%[15.4 µM] | 3 | 9% | -0.3%
CCN(CC)c1ccc(O)c(C=Nc2ccc(C)c(C)c2)c1 | -3.8 | 6% | 0 | 22% | -1 | -2% | .
N#CCSc1nc2ccccc2o1 | 1.2 | 6% | -5 | 5%[15.4 µM] | 0 | 1% | 0.9%
Cc1ccccc1S(=O)Cc1ccc(C(=O)N2CCN(C3CCCCC3)CC2)o1 (centres undefined) | . | . | -25 | -7% | . | . | -1.0%
Cc1ccc(NCC(=O)N/N=C\C(Br)=C\c2ccccc2)cc1 | 0.8 | 3% | 6 | -2% | 2 | 2% | 1.1%
Cc1cccc(OCC(=O)Nc2nc3ccc([N+](=O)[O-])cc3s2)c1 | 2.2 | -15% | 5 | 6% | 27 | -15% | 1.4%
Cc1ccc(C2(CCN)CCOC(C(C)C)C2)cc1 (centres undefined) | 0.6 | 6% | -14 | 6% | -11 | 12% | 0.2%
Cc1ccc(CNC(=O)C2(c3cccs3)CCOCC2)cc1 | 4.4 | 4% | 0 | ? | -8 | 11% | 1.4%&-1.7%
C/C(Cl)=C/Cn1c(N2CCCC2)nc2c1c(=O)n(C)c(=O)n2C | 0.6 | -8% | -2 | 9% | 3 | 10% | -0.9%
COc1cccc(N=Nc2ccc3ccccc3c2O)c1 | -21 | 6% | . | -10% | ? | 0% | 1.4%

Ordered by number of heavy atoms (smallest number first): some entries from above.
SMILES | Menin-MLL FL inh | gsp antagonist | CtBP-E1A blk | gsp agonist | TRPV1 PAM | Sfp inh | ClpP mod
COc1ccc(S(=O)(=O)Nc2ccc3cn[nH]c3c2)cc1C | 1.2 | 12% | . | 17%[15.4 µM] | -16 | -2% | .
C=CCn1c(SCc2ccc(Br)cc2F)nc2cc(C(=O)O)ccc2c1=O | 0.0 | ? | -1 | -8% | 13 | -8% | .
CC(C)(C)OC(=O)N1CCN(C(=O)c2[nH]cnc2C(=O)Nc2nccs2)CC1 | . | 10% | ? | ? | -7 | . | -1.7%

Next part:
SMILES | Menin-MLL FL inh | gsp antagonist | CtBP-E1A blk | gsp agonist | TRPV1 PAM | Sfp inh | ClpP mod
Cc1ccc(C)c(C2=NNC(=O)CC2)c1 | . | 11% | 0 | 0%[15.4 µM] | . | . | -2.3%
Cc1cccn2cc(COc3cccc([N+](=O)[O-])c3)nc12 | 0.8 | -8% | 1 | 6% | -1 | -1% | .
O=C(NS(=O)(=O)NC1CCCCC1)C1=C(N2CCCC2)COC1=O | . | 11% | 12 | 0% | . | . | 0.1%
O=[N+]([O-])c1ccc(/C=C/c2ccc3cccc([N+](=O)[O-])c3n2)cc1 | -6.0 | -6% | -24 | -27% | ? | -19% | 1.0%
CCOC(=O)c1[nH]c(CO)c(C(=O)OCC)c1C | 1.2 | 1% | 0 | ? | 15 | 7% | .
CCOC(=O)C(NS(=O)(=O)c1ccccc1)(C(F)(F)F)P(=O)(OC(C)C)OC(C)C (centres undefined) | -2.1 | 10% | -10 | 0% | 1 | 16% | -1.3%
O=C1/C(=C/C=C/c2ccco2)SC(=S)N1c1ccc(O)cc1 | ? | -17% | ? | ? | -1 | 20µM* | -3.4%
CC(C)(C)NC(=O)Cn1nnc(-c2ccc(S(C)(=O)=O)cc2)n1 | -1.9 | 2% | 3 | -61%[inhibitor] | -8 | 26% | -2.4%
COc1ccccc1N(C)S(=O)(=O)c1ccc(Cl)c(C(=O)NCCCN2CCOCC2)c1 | -5.5 | -6% | 3 | -13%[15.4 µM] | 1 | -3% | 1.3%
CCCN(CC(=O)Nc1ccccc1C)C(=O)c1ccc(NC2CC2)c([N+](=O)[O-])c1 | . | -3% | -5 | -2%[15.4 µM] | -16 | . | .
Cc1ccc(C2C(C#N)=C(N)Oc3c2sc2ccccc32)o1 (centres undefined) | ? | . | . | . | 8 | 56µM* | .
COc1ccc(CCC(C)Nc2ccc(F)c(F)c2)cc1 (centres undefined) | -0.3 | 3% | 1 | -8% | 5 | ? | 1.7%
O=c1sc(N2CCN(c3ccc(F)cc3)CC2)nc2ccsc12 | 2.1 | 17% | 9 | -33%[inhibitor] | -9 | -11% | 0.2%
C=CCC1(Cl)C(=O)C(Cl)=C(N2CCN(C)CC2)C1(OC)OC (centres undefined) | 4.4 | -6% | 3 | -10% | -4 | 9% | -0.3%
CCN(CC)C1=CC2=CC(=C(C#N)C#N)CCC2CC1 (centres undefined) | ? | -20% | 0 | -5%[15.4 µM] | 7 | -4% | .
Cc1ccccc1-c1noc(-c2ccccc2C(=O)N2CCCC2)n1 | 9.6 | -8% | -2 | -19% | -5 | 6% | -1.7%
Clc1ccc(-n2ncc3c(NCc4cccnc4)ncnc32)cc1Cl | 0.0 | 8% | -23 | 28% | 2 | 17% | -1.0%
CC(Oc1ccccc1)C(=O)N(CCC1=CCCCC1)c1c(N)n(Cc2ccccc2)c(=O)[nH]c1=O (centres undefined) | . | 0% | -8 | -23%[15.4 µM] | -2 | 17% | -5.7%
CCOc1ccc(C(c2c(NC(=O)c3ccccc3)sc(C)c2C)N2CCN(CCO)CC2)cc1 (centres undefined) | 0.4 | -18% | -19 | -1% | -10 | -17% | 0.8%
CCn1c2ccccc2c2nnc(SCC(=O)c3ccccc3)nc21 | 2.1 | 4% | -3 | ? | -5 | ? | 4.8%
Cn1c(=NC(=O)COc2ccccc2)sc2cccc(F)c21 | 2.9 | 9% | . | -52%[inhibitor] | -12 | 3% | -0.6%
O=C(O)C(S)C(S)C(=O)O (centres undefined) | . | -5% | -18 | . | . | . | 1.3%
CN1CCN(C(=O)c2ccc(Cn3cc(Cl)cn3)o2)CC1 | 1.4 | 11% | 5 | -12%[15.4 µM] | -5 | 5% | .
O=C(COC(=O)c1n[nH]c(=O)c2ccccc12)NCc1ccccc1 | . | 3% | . | 22% | -9 | . | 1.8%
Cc1ccsc1C(=O)NC(C)c1ccc2c(c1)OCO2 (centres undefined) | 0.9 | 5% | -2 | 9% | 2 | 14% | 0.9%
NC(=O)C1CCCN(C(=O)c2cccc(S(=O)(=O)N3CCCCCC3)c2)C1 (centres undefined) | . | -3% | 3 | -9% | -2 | . | -1.2%
CN(CC(=O)Nc1ccccc1C(F)(F)F)C(=O)CSc1nc(N)cc(N)n1 | . | 17% | 3 | 0% | -13 | . | -1.0%
CCc1ccccc1N1CC(C(=O)Nc2cc(S(=O)(=O)N3CCCC3)ccc2Cl)CC1=O (centres undefined) | . | -21% | 0 | -11% | 6 | . | -2.3%
C=CCNC(=S)NN=C1CCC(c2ccccc2)CC1 (centres undefined) | -0.9 | 4% | -10 | 12% | -17 | -13% | .
CC1(C)C2CCC(C2)C1(C)N=C1OC(CCl)CS1 (centres undefined) | 2.6 | 4% | 3 | -1%[15.4 µM] | -1 | 12% | 0.0%
COc1ccc(-n2ncc3c2CC(C)(C)CC3NC(=O)c2c(C)cc(=O)oc2C)cc1 (centres undefined) | -4.8 | -10% | -12 | ? | 1 | 1% | -2.4%
CCOC(=O)COc1ccccc1C(=O)c1cnn(-c2ccccc2)c1 | 2.1 | ? | . | -25% | -20 | 4% | -9.1%
CCOC(=O)N1CCN(S(=O)(=O)c2cc([N+](=O)[O-])c(C)cc2C)CC1 | 2.9 | 3% | -8 | 20% | 5 | 9% | .
CCc1ccc(C(=O)NNc2ccc(S(N)(=O)=O)cc2)cc1 | -0.7 | 7% | -23 | -3%[15.4 µM] | -4 | -1% | -6.3%
O=C(O)CCCC(=O)Nc1cccc2cccnc12 | 0.4 | 0% | 4 | -36%[inhibitor] | -3 | 3% | -3.0%
O=C(CN(Cc1ccco1)C(=O)CNS(=O)(=O)c1ccc(Cl)cc1)NCc1ccc(F)cc1 | . | 1% | 0 | -41%[inhibitor] | . | . | -1.2%

Compound activity as filed in PubChem.
